GALR2 ag: GALR2 receptor agonists, primary screen, cell-based; Galanin receptor type 2 (Homo sapiens), O43603; GALR2-expressing cells, agonist activation read-out; activation, %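 (tested at 5 µM)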; 140,000 compounds, 0.48% hits;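 active means above mean plus 3 SD of all compounds, about 5% in these data, not always enough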;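 further: 0% = vehicle buffer wells and 100% = reference agonist at full effect; tested in CHO reporter cells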
Target sequence (O43603 whole entry, looked up): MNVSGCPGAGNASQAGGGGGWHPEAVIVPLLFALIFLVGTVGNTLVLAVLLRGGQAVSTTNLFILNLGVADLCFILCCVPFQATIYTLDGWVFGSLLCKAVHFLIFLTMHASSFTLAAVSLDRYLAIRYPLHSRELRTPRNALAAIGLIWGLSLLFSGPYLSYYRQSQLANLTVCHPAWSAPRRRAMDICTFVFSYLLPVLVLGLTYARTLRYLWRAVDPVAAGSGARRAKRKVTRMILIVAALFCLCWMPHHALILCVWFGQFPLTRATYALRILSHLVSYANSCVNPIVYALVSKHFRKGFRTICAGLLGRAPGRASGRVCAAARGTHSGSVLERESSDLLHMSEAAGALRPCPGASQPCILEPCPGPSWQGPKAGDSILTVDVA
PKD1 inh: inhibitors of human PKD1 kinase, biochemical, fluorescence polarization; 200,000 compounds, 0.056% hits; PKD1 kinase fluorescence polarization assay; AID 797, 2007; inhibition, %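 (about 10 µM by stock and volumes)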;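 active means inhibition of 50% or more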;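 further: controls were vehicle for no effect and a reference inhibitor for full effect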
RGS16-Gao: modulators of RGS16 binding to Galphao, primary screen, biochemical, human proteins, multiplexed bead flow cytometry. 220,000 compounds, 0.38% hits. binding response (% of control), % at 10 µM. bead-based flow cytometry RGS16-Galphao binding, fluorescence; actives lie on both sides. Regulator of G-protein signaling 16 (Homo sapiens) + Guanine nucleotide-binding protein …. AID 1441, 2008;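 active means below 25% or above 175%, edge rows of some plates excepted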;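 further: Galphao activated by GDP with aluminum fluoride before binding; 100% = wells without compound and 0% = beads without RGS; some results beyond the cut were filed as inactive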
Target sequence (O15492 whole entry, looked up): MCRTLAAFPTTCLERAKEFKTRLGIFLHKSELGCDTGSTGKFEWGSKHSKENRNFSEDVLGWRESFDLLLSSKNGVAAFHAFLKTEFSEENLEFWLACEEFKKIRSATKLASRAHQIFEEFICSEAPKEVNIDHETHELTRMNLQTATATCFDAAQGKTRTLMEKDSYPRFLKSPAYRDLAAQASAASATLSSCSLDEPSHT
Target sequence (P09471 whole entry, looked up): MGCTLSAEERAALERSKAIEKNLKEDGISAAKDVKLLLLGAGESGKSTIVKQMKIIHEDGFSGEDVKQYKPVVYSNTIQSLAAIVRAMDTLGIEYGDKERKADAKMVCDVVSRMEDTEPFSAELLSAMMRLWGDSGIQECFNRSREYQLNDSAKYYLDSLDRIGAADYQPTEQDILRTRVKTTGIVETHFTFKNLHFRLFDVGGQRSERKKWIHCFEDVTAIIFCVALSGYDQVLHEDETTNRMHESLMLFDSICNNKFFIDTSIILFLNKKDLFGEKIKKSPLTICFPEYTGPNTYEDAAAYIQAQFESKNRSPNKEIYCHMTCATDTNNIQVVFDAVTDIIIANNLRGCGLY
Insulin prom inh: inhibitors of insulin promoter-driven GFP, primary screen, imaging, TRM-6 cells (human fetal islet line), eGFP reporter, cell count. reporter expression induced with tamoxifen. inhibition, % at 2 µM. 130,000 compounds, 0.9% hits. AID 1273, 2008;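 active means inhibition above the mean plus 3 SD, with well images judged a real hit on visual review, cut at about 60% in these data, passing the limit was not always enough; inconclusive means inhibition over the cutoff but images rejected on review; inactive means inhibition not above the cutoff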
HSV replic up: enhancers of HSV replication in host cells, fold increase, host cell viability; AID 1956, 2009; 220,000 compounds, 0.005% hits; maximum fold increase; HSV replication augmentation in cells;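 active means peak rise of 1.5-fold or more in the series; inconclusive means self-fluorescent or not available for retest; tested in PC3 cells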;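 further: first round at 10 µM; read as green reporter fluorescence; hits show the peak of a series up to 25 µM; 1 = signal of infected wells without compound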
Insulin prom inh cell count: second read-out of Insulin prom inh, no call of its own (marks repeat the call); normalized cell count, %; measured here: cell count, toxicity; reference of the scale not given here;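 cells exposed to compound for 48 h; stained nuclei by imaging scaled within each plate; lower means fewer cells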
HSV replic up primary fold: recorded beside HSV replic up, whose call it bears; fold increase; compound at 10 µM; measured here: primary screen fold increase 10 uM; tested in PC3 cells;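 GFP signal in the first replicate; 1 = infected wells without compound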
Active calls of the source: *; & = joins results of further samples.

Sample of the layout:
How did O=C(Nc1ccc(Cl)cc1)c1cccnc1N1CCCCC1 do in these assays?
GALR2 ag: -1.9; PKD1 inh: -5.9; RGS16-Gao: 99.0; Insulin prom inh: 20.0; HSV replic up: inactive; Insulin prom inh cell count: 119.4; HSV replic up primary fold: 0.89

Results for N=C(N)c1ccccc1 ?
RGS16-Gao: 99.3; HSV replic up: inactive; HSV replic up primary fold: 0.75&1

How did Oc1ccccc1-n1nc2ccc3nonc3c2n1 do in these assays?
RGS16-Gao: 94.2; HSV replic up: inactive; HSV replic up primary fold: 0.93

The list itself, repeating the preview:
How did O=C(Nc1ccc(Cl)cc1)c1cccnc1N1CCCCC1 do in these assays?
GALR2 ag: -1.9; PKD1 inh: -5.9; RGS16-Gao: 99.0; Insulin prom inh: 20.0; HSV replic up: inactive; Insulin prom inh cell count: 119.4; HSV replic up primary fold: 0.89

Results for N=C(N)c1ccccc1 ?
RGS16-Gao: 99.3; HSV replic up: inactive; HSV replic up primary fold: 0.75&1

How did Oc1ccccc1-n1nc2ccc3nonc3c2n1 do in these assays?
RGS16-Gao: 94.2; HSV replic up: inactive; HSV replic up primary fold: 0.93

What do the screens show for `CC(=O)N1C(C)(C)CC(=NOC(=O)c2ccc(C)cc2)CC1(C)C`?
PKD1 inh: -0.3; RGS16-Gao: 103.8; HSV replic up: inactive; HSV replic up primary fold: 1.19

Results for CC(C)(CSc1ncccn1)NS(=O)(=O)c1ccccc1 ?
PKD1 inh: -8.6; RGS16-Gao: 94.5; Insulin prom inh: 14.3; HSV replic up: inactive; Insulin prom inh cell count: 121.0; HSV replic up primary fold: 0.87

What do the screens show for `Cc1cc([N+](=O)[O-])ccc1NC(=O)c1ccco1`?
PKD1 inh: -5.6; RGS16-Gao: 105.7; Insulin prom inh: -35.7; HSV replic up: inactive; Insulin prom inh cell count: 116.5; HSV replic up primary fold: 0.92

Results for Cc1ccc2nc(C)cc(N/N=C/c3ccc(F)cc3)c2c1 ?
PKD1 inh: -2.7; RGS16-Gao: 99.4; HSV replic up: inactive; HSV replic up primary fold: 1.05

Results for Cc1nn(-c2ccccc2)c(Cl)c1C(=O)Nc1c(C)n(C)n(-c2ccccc2)c1=O ?
GALR2 ag: -0.1; PKD1 inh: -12.8; RGS16-Gao: 101.2; Insulin prom inh: -81.8; HSV replic up: inactive; Insulin prom inh cell count: 66.9; HSV replic up primary fold: 1.11

What do the screens show for `O=C(c1ccc(Cl)cc1Cl)N1CCSCC1`?
RGS16-Gao: 101.3; HSV replic up: inactive; HSV replic up primary fold: 1

What do the screens show for `CCc1cc(C=C(Cl)Cl)oc(=O)c1C`?
GALR2 ag: -0.3; PKD1 inh: -5.1; RGS16-Gao: 99.8; Insulin prom inh: 20.0; HSV replic up: inactive; Insulin prom inh cell count: 127.2; HSV replic up primary fold: 1.05

What do the screens show for `COc1cccc(C(=O)C(C#N)=C(SC)SC)c1`?
RGS16-Gao: 86.1; HSV replic up: inactive; HSV replic up primary fold: 0.93

How did CC(C)OC(=O)C1C2C=CC3(CN(Cc4cccs4)C(=O)C13)O2 (configuration not stated) do in these assays?
GALR2 ag: -0.7; PKD1 inh: 3.9; RGS16-Gao: 96.0; Insulin prom inh: -22.2; HSV replic up: inactive; Insulin prom inh cell count: 77.6; HSV replic up primary fold: 1

What do the screens show for `COc1cc(OC)c(OC)cc1CN1CCC(O)CC1`?
RGS16-Gao: 105.7; HSV replic up: inactive; HSV replic up primary fold: 1.06

What do the screens show for `C#CCOC(=O)c1ccccc1C(=O)O`?
GALR2 ag: -1.5; PKD1 inh: -10.3; RGS16-Gao: 87.2; Insulin prom inh: -280.9; HSV replic up: inactive; Insulin prom inh cell count: 74.6; HSV replic up primary fold: 0.64

Results for COc1ccc(S(=O)(=O)N2CCCOC2CNC(=O)C(=O)NCc2ccco2)cc1 (configuration not stated) ?
PKD1 inh: -2.7; RGS16-Gao: 93.3; Insulin prom inh: -31.2; HSV replic up: inactive; Insulin prom inh cell count: 129.1; HSV replic up primary fold: 0.97

How did Cc1ccc2cc(CCNC(=O)c3cccc([N+](=O)[O-])c3)c(=O)[nH]c2c1C do in these assays?
GALR2 ag: -0.6; PKD1 inh: -2.7; RGS16-Gao: 101.2; HSV replic up: inactive; HSV replic up primary fold: 1.08

Results for O=C(NCC1CCC(C(=O)O)CC1)OCc1ccccc1 (configuration not stated) ?
GALR2 ag: 0.5; PKD1 inh: -5.9; RGS16-Gao: 96.3; Insulin prom inh: -41.7; Insulin prom inh cell count: 104.4

Results for COc1cccc(CC2(CO)CCCN(C(=O)c3cc[n+]([O-])cc3)C2)c1 (configuration not stated) ?
PKD1 inh: -1.1; RGS16-Gao: 99.0; HSV replic up: inactive; HSV replic up primary fold: 1.05

Results for Cc1ccc(-n2c(=O)[nH]cc(C(=O)Nc3ccc4c(c3)OCCO4)c2=O)cc1 ?
GALR2 ag: -0.6; PKD1 inh: -5.2; RGS16-Gao: 99.9; Insulin prom inh: -71.4; HSV replic up: inactive; Insulin prom inh cell count: 77.4; HSV replic up primary fold: 0.85

How did OCc1cn(-c2ccccc2)nc1-c1ccco1 do in these assays?
GALR2 ag: -1.4; PKD1 inh: 2.2; RGS16-Gao: 108.5; Insulin prom inh: 34.4; HSV replic up: inactive; Insulin prom inh cell count: 136.1; HSV replic up primary fold: 0.96

How did COc1ccc([N+](=O)[O-])cc1NC(=O)CSc1ncccn1 do in these assays?
PKD1 inh: -1.2; RGS16-Gao: 94.6; Insulin prom inh: -11.8; HSV replic up: inactive; Insulin prom inh cell count: 55.0; HSV replic up primary fold: 0.96

How did C/C(=N\NC(=O)Cn1ccc(C(F)(F)F)n1)c1ccc(N2CCOCC2)cc1 do in these assays?
RGS16-Gao: 97.5; HSV replic up: inactive; HSV replic up primary fold: 0.93

What do the screens show for `COc1ccccc1Sc1ccccc1/C=N/NC(N)=O`?
PKD1 inh: 0.1; RGS16-Gao: 107.1; Insulin prom inh: 38.9; HSV replic up: inactive; Insulin prom inh cell count: 136.2; HSV replic up primary fold: 0.86

How did O=C(CN1CCN(S(=O)(=O)c2ccc(F)cc2)CC1)Nc1ccccc1F do in these assays?
GALR2 ag: -1.2; PKD1 inh: -2.1; RGS16-Gao: 96.5; Insulin prom inh: 0.0; HSV replic up: inactive; Insulin prom inh cell count: 53.0; HSV replic up primary fold: 0.88

What do the screens show for `CC1(C)CC(=O)C2=C(C1)OC(N)=C(C#N)[C@@]21C(=O)N(CC(N)=O)c2ccccc21`?
GALR2 ag: -2.2; PKD1 inh: -1.5; RGS16-Gao: 105.2; HSV replic up: inactive; HSV replic up primary fold: 0.99

How did Cc1nnc(SCCn2c(N3CCCCC3)nc3c2c(=O)n(C)c(=O)n3C)s1 do in these assays?
GALR2 ag: -0.8; PKD1 inh: -7.2; Insulin prom inh: 30.2; HSV replic up: inactive; Insulin prom inh cell count: 90.6; HSV replic up primary fold: 0.93

What do the screens show for `CC(=O)CSc1ncnc2sc3c(c12)CCC3`?
PKD1 inh: -4.7; RGS16-Gao: 99.9; HSV replic up: inactive; HSV replic up primary fold: 0.95

Results for Cc1ccc(S(=O)(=O)N(C)C)cc1NC(=O)CSc1ncc(C(F)(F)F)cc1Cl ?
GALR2 ag: -0.3; PKD1 inh: 4.4; RGS16-Gao: 104.7; Insulin prom inh: 7.9; HSV replic up: inactive; Insulin prom inh cell count: 131.5; HSV replic up primary fold: 1

What do the screens show for `COC(=O)C1=C(C)N(c2ccc(OC)cc2)C(=O)/C1=C\c1cccs1`?
GALR2 ag: 0.1; PKD1 inh: -1.1; RGS16-Gao: 45.0; Insulin prom inh: -6.5; HSV replic up: inactive; Insulin prom inh cell count: 100.2; HSV replic up primary fold: 0.91

Results for CC(C)(C)NC(=O)NC(=O)COC(=O)c1cccc(OC(F)F)c1 ?
PKD1 inh: -6.3; RGS16-Gao: 107.0; HSV replic up: inactive; HSV replic up primary fold: 0.69

What do the screens show for `O=[N+]([O-])c1ccc2ccn(C3OCC(O)C(O)C3O)c2c1` (configuration not stated)?
PKD1 inh: -10.1; RGS16-Gao: 107.2; HSV replic up: inactive; HSV replic up primary fold: 0.93

Results for Cn1c(=O)oc2cc(S(=O)(=O)N3CCCC(C(=O)Nc4ccccn4)C3)ccc21 (configuration not stated) ?
GALR2 ag: 16.9*; PKD1 inh: 2.4; RGS16-Gao: 101.4; HSV replic up: inactive; HSV replic up primary fold: 0.92

How did COc1ccc(NC(=O)c2sc3nc(-c4cccnc4)ccc3c2N)cc1OC do in these assays?
RGS16-Gao: 99.0; HSV replic up: inconclusive

What do the screens show for `CCc1cccc(CC)c1N(COC)C(=O)Cn1ccccc1=N`?
GALR2 ag: 3.5; PKD1 inh: -5.5; RGS16-Gao: 101.8; Insulin prom inh: -85.7; HSV replic up: inactive; Insulin prom inh cell count: 111.3; HSV replic up primary fold: 0.993

What do the screens show for `O=C(CN(Cc1ccco1)C(=O)CNS(=O)(=O)c1ccc(F)cc1)NCc1ccc(F)cc1`?
GALR2 ag: -2.1; PKD1 inh: -14.6; RGS16-Gao: 96.9; HSV replic up: inactive; HSV replic up primary fold: 1.02

How did CCCCCCCCCCCCS(=O)(=O)CCC(=O)O do in these assays?
RGS16-Gao: 100.1; HSV replic up: inactive; HSV replic up primary fold: 0.94

What do the screens show for `Cc1ccnc(SCC(=O)N2CCCc3ccccc32)n1`?
PKD1 inh: 7.5; RGS16-Gao: 95.8; HSV replic up: inactive; HSV replic up primary fold: 1.14

How did COc1ccc(-c2onc(C)c2-c2cnn(-c3ccccc3)c2)c(O)c1C do in these assays?
PKD1 inh: -6.7; RGS16-Gao: 94.1; HSV replic up: inactive; HSV replic up primary fold: 1.04

Results for O=C(c1ccc2ccccc2c1)N1CCN(c2ccc([N+](=O)[O-])c(N3CCOCC3)c2)CC1 ?
GALR2 ag: -2.3; PKD1 inh: -8.2; RGS16-Gao: 104.4; Insulin prom inh: 9.1; HSV replic up: inactive; Insulin prom inh cell count: 94.4; HSV replic up primary fold: 0.98

Results for CCCOc1ccc(/C=N/Nc2ccccc2[N+](=O)[O-])c(OCCC)c1 ?
GALR2 ag: -0.6; PKD1 inh: -2.5; RGS16-Gao: 96.5; Insulin prom inh: 83.9*; HSV replic up: inactive; Insulin prom inh cell count: 97.3*; HSV replic up primary fold: 0.89

Results for Cc1cccc(N=C2NC(=O)/C(=C/c3cccnc3)S2)c1C ?
RGS16-Gao: 100.9; HSV replic up: inactive; HSV replic up primary fold: 1

How did O=C(O)CCc1nc2ccccc2c(=O)[nH]1 do in these assays?
RGS16-Gao: 103.8; HSV replic up: inactive; HSV replic up primary fold: 1

How did Cc1ccc(CNC(=O)/C(C#N)=C\c2ccc(N(C)C)cc2)cc1 do in these assays?
GALR2 ag: 1.4; PKD1 inh: -1.1; RGS16-Gao: 97.4; HSV replic up: inactive; HSV replic up primary fold: 1

What do the screens show for `Cc1ccc(-c2nc(NC(=O)CSc3ccc4ccccc4n3)ns2)cc1`?
GALR2 ag: -1.1; PKD1 inh: -4.2; RGS16-Gao: 97.3; Insulin prom inh: -2.4; HSV replic up: inactive; Insulin prom inh cell count: 115.4; HSV replic up primary fold: 1.17

Results for CC(C)c1ccccc1NC(=S)N1CCN(S(=O)(=O)c2cccs2)CC1 ?
PKD1 inh: -0.7; RGS16-Gao: 94.3; HSV replic up: inactive; HSV replic up primary fold: 0.92

What do the screens show for `O=C(COC(=O)C1CC(=O)N(Cc2ccco2)C1)c1ccc(OC(=O)c2ccco2)cc1` (configuration not stated)?
GALR2 ag: -0.4; PKD1 inh: -10.0; RGS16-Gao: 101.5; Insulin prom inh: -47.4; HSV replic up: inactive; Insulin prom inh cell count: 200.0; HSV replic up primary fold: 1.02

How did COc1cc2[nH]c3ccccc3c2cc1C do in these assays?
RGS16-Gao: 96.2; HSV replic up: inactive; HSV replic up primary fold: 0.73

Results for O=C(CCl)Nc1cccc(-c2cnc3ccccc3n2)c1 ?
GALR2 ag: -1.4; PKD1 inh: 5.2; RGS16-Gao: 100.6; HSV replic up: inactive; HSV replic up primary fold: 0.79

What do the screens show for `CC(C)(C)NC(=O)C(c1cccs1)N(C(=O)c1csnn1)c1cccc(F)c1` (configuration not stated)?
PKD1 inh: -8.1; RGS16-Gao: 115.1; HSV replic up: inactive; HSV replic up primary fold: 1.01
